Measles inh: inhibitors of measles virus growth in infected cells. infected Vero cells, GFP fluorescence, 64 h; active compounds read low. z-score (no concentration beside the values). actives 0.1% (n = 33,000). AID 745;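 active = z-score under -3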;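 note: score is relative to mean and SD of the compound wells of a plate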
Numbers without * were called inactive.

SMILES	Measles inh
COc1ccc(Nc2cc(C(=O)N3CCOCC3)c3ccccc3n2)c(OC)c1	2.21
Cc1ccc(CNC(=O)CCNC(=O)c2ccc(Br)o2)cc1	-0.47
Cc1ccc2cc3cc(C(=O)N(C)Cc4ccccc4)oc3nc2c1	0.05
COc1ccc(Nc2nc(S(=O)(=O)c3ccc(C)cc3)c(Cl)s2)cc1	-1.59
Cc1ccc(CSCc2ccc(C(=O)NCCc3ccc(Cl)cc3)o2)cc1	-0.11
CCCCCc1ccc(-c2ccc(C(=O)Nc3ccc(C(C)=O)cc3)cc2)nc1	0.68
Cn1c(SCC(=O)NCc2ccccn2)nc2sc3c(c2c1=O)CCCC3	-0.37
CC1CCN(S(=O)(=O)c2cccc(C(=O)Nc3ccccc3C(=O)Nc3ccccc3)c2)CC1	0.67
CSc1nsc(SC)c1C(=O)N1CCN(S(=O)(=O)c2ccc(C)cc2)C1c1ccccc1 (configuration not stated)	-0.75
COc1ccc(OC)c(S(=O)(=O)n2nnc3cc(Cl)ccc32)c1	-1.38
Cc1cccc2sc(NC(=O)CCCN3C(=S)NC(C)(C)CC3C)nc12 (configuration not stated)	-0.67
O=C1C(=O)N(CCCN2CCOCC2)C(c2cccs2)/C1=C(\O)c1ccc(Cl)cc1 (configuration not stated)	1.49
O=C(Nc1ccc2c(c1)OCO2)C1CCCN(S(=O)(=O)c2cccs2)C1 (configuration not stated)	-0.63
Cc1cccc(N=c2scc(-c3ccc(F)cc3)n2CCO)c1	-0.01
CCOc1ccccc1C(=O)Nc1c2c(nn1-c1ccc([N+](=O)[O-])cc1)CSC2	-0.1
COc1ccc2nc3oc(C(=O)NCCN4CCOCC4)cc3cc2c1	-0.96
O=C(NCC1CCCO1)C(=O)Nc1ccc(Cl)cc1 (configuration not stated)	1.66
COCCCNc1ccc(N2C(=O)CCC2=O)cc1[N+](=O)[O-]	-0.44
C=CCSc1nnc2c(n1)OC(c1cc(C)ccc1C)N(C(C)=O)c1ccccc1-2 (configuration not stated)	-0.23
Cc1ccc(-n2c(=O)[nH]c3cc(C(=O)N4CCN(c5cc(C)ccc5C)CC4)ccc3c2=O)cc1	-0.33
O=C(Nc1cccc(-c2nc3cc(Cl)ccc3o2)c1)c1ccc(Br)o1	-0.44
COCc1oc2c(cc(NS(=O)(=O)c3c(C)cc(C)cc3C)c3ccccc32)c1C(=O)OC	-0.28
COc1ccccc1CC(=O)N1CC(C)CC(C)C1 (configuration not stated)	-1.03
COC(=O)CSc1nc(C)c(C(=O)Nc2ccccc2C)c(-c2ccc(Cl)cc2)c1C#N	1
CC(C)Cc1ccc(-c2csc(Nc3ccc4c(c3)OCO4)n2)cc1	-0.43

Filtered by structure: those above with bromine
SMILES	Measles inh
Cc1ccc(CNC(=O)CCNC(=O)c2ccc(Br)o2)cc1	-0.47
O=C(Nc1cccc(-c2nc3cc(Cl)ccc3o2)c1)c1ccc(Br)o1	-0.44

Further entries.
SMILES	Measles inh
O=C(Oc1ccc(Br)cc1)c1cccc(N2C(=O)C3CCCCC3C2=O)c1 (configuration not stated)	-2.27
CC(C)(C)n1nc2c(c1NC(=O)c1ccccc1F)CS(=O)(=O)C2	-0.05
COc1cccc2c(=O)c(CN(CC(C)C)CC(C)C)c(C)[nH]c12	-0.55
CCCCn1c(=O)c2ccccc2c2ccccc2c1=O	-1.31
O=[N+]([O-])c1cccc(C=Nc2cccc3ccccc23)c1O	-0.51
COc1ccc(Cl)cc1C(=O)Nc1cc(C)c2c(=O)oc3ccccc3c2n1	0.79
COc1ccc(C(=O)C2C(c3cccnc3)C(C#N)(C#N)C3C=Cc4ccccc4N23)cc1 (configuration not stated)	2.86
O=c1c2ccccc2nc(SCc2cccc([N+](=O)[O-])c2)n1Cc1ccc2c(c1)OCO2	0.19
CN(C(=O)CCc1nc(-c2ccccc2F)no1)c1ccccc1F	0.36
CCOCCOC(=O)C1=C(C)Nc2ccc(C)cc2S1	0.43
CCN(CC)c1ccc(-n2cc3c(c2-c2ccc(C)cc2)c(=O)n(C)c(=O)n3C)cc1	0.71
COc1ccc(C2C3=C(CC(C)(C)CC3=O)Nc3nc(SCCN4CCOCC4)[nH]c(=O)c32)cc1OC (configuration not stated)	0.8
COc1cccc(NC(=O)COc2cc(C)ccc2C(C)(C)C)c1	0.53
N#Cc1nc(COc2ccccc2F)oc1N1CCCCC1	0.09
CCOC(=O)CN1C(c2ccccc2O)Nc2ccc(Br)cc2C1c1ccccc1 (configuration not stated)	0.87
Cc1c(C)n(CC(O)CNc2ccccc2)c2ccccc12 (configuration not stated)	1.04
CC1=C(C(=O)OCCOc2ccccc2)C(c2cccnc2)C2=C(CC(C)(C)CC2=O)N1 (configuration not stated)	2.79
COc1ccccc1-c1cc(C(F)(F)F)nc(S(=O)(=O)CCCC(=O)Nc2ccccc2F)n1	0.32
CCOc1cc(CNC(=O)c2cc(-c3ccc(Cl)s3)nc3ccccc23)ccc1OC	1.88
COCCN1C(=O)c2ccccc2C(C(=O)N2CCN(c3ccccn3)CC2)C1c1c[nH]c2ccccc12 (configuration not stated)	-0.89
Cc1cc(NS(=O)(=O)c2ccc(NC(=O)COc3c(C)ccc(C)c3C)cc2)nc(C)n1	-0.78
CC1=C(C(=O)Nc2ccc(Cl)cc2)C(c2ccccc2Cl)n2c(nc3ccccc32)N1 (configuration not stated)	-0.51
O=C(CCn1c(=O)c2ccccc2n(Cc2cc(=O)n3ccccc3n2)c1=O)NCc1ccc2c(c1)OCO2	-0.61
O=C(CSc1ccccn1)N1CCc2ccccc2C1	-0.22
COc1ccc(C=Nc2ccc(C)cc2)cc1	-0.04

Reprinted from the part before: five compounds, followed by the next part.
SMILES	Measles inh
Cc1cc(NS(=O)(=O)c2ccc(NC(=O)COc3c(C)ccc(C)c3C)cc2)nc(C)n1	-0.78
CC1=C(C(=O)Nc2ccc(Cl)cc2)C(c2ccccc2Cl)n2c(nc3ccccc32)N1 (configuration not stated)	-0.51
O=C(CCn1c(=O)c2ccccc2n(Cc2cc(=O)n3ccccc3n2)c1=O)NCc1ccc2c(c1)OCO2	-0.61
O=C(CSc1ccccn1)N1CCc2ccccc2C1	-0.22
COc1ccc(C=Nc2ccc(C)cc2)cc1	-0.04
CC(C)Cc1ccc(S(=O)(=O)N(C)Cc2ccccc2)cc1	-0.43
O=C(O)c1[nH]c2ccccc2c1CC(=O)N1CCN(c2ccccc2F)CC1	0.12
Cc1c(NC(=O)c2cc(-c3ccc4c(c3)OCO4)nc3ccccc23)c(=O)n(-c2ccccc2)n1C	-0.5
CC(C)c1ccc(NC(=O)c2ccc(N3CCc4ccccc4C3)c([N+](=O)[O-])c2)cc1	0.13
COc1ccc(N2CC(C(=O)NCc3cccc(C)c3)CC2=O)cc1 (configuration not stated)	0.06
COc1ccc(NC(=O)C2C3C=CC4(O3)C2C(=O)N(C2CCC(C)CC2)C4C(=O)NC2CCCCC2)cc1 (configuration not stated)	-0.81
COc1ccc(C2C(C(=O)N3CCN(c4ccc(OC)cc4)CC3)c3ccccc3C(=O)N2C2CCCCC2)cc1 (configuration not stated)	-0.71
O=C(O)CC(c1ccccc1)(c1ccccc1)c1ccccc1	0.24
CC1CN(c2ccc([N+](=O)[O-])cc2)CCN1S(=O)(=O)c1cccc2nsnc12 (configuration not stated)	0.21
COc1ccc(CNc2ncnc3nc[nH]c23)cc1	-1.38
O=C(CSc1nc(-c2ccccc2)cn1-c1ccc(Cl)cc1)c1ccccc1	0.13
O=C(CC1OC(=O)c2ccccc21)c1ccc(I)cc1 (configuration not stated)	-0.16
CCCOc1ccc(-c2nc3ccccc3c(C(=O)O)c2C)cc1	-0.4
CCC12c3ccccc3C(c3ccccc31)C1C(=O)N(c3ccc(Cl)c(C(=O)O)c3)C(=O)C12 (configuration not stated)	0.02
COc1ccc(-n2cc(-c3ccc(C)cc3)nc2SCC(=O)Nc2ccccc2Cl)cc1	-0.03
Cc1cccc(Nc2ccc3nonc3c2[N+](=O)[O-])c1C	0.16
N#Cc1c(N=Cc2cccc3ccccc23)sc2c1CCCC2	0.67
CCOC(=O)c1c(C)oc2cc(Br)c(OCc3ccc(C(=O)OC)cc3)cc12	-0.09
CCOC(=O)c1c(NC(=O)C2c3ccccc3Oc3ccccc32)sc(C(N)=O)c1C	-0.69
O=C(NC1CCN(Cc2ccccc2)CC1)C1CCC(CNS(=O)(=O)c2ccc(Br)s2)CC1 (configuration not stated)	1.94
O=c1c(-c2nc3ccccc3s2)coc2cc(OCc3ccc([N+](=O)[O-])cc3)ccc12	-0.12
O=C(O)c1cc(N2C(=O)c3ccccc3C2=O)cc(N2C(=O)c3ccccc3C2=O)c1	-0.31
COc1ccc(C2C(C(=O)OC3CCCCCC3)=C(C)NC3=C2C(=O)CC(C)(C)C3)cc1OC (configuration not stated)	-0.55
Oc1ccc(Br)cc1CN1CCN(Cc2ccco2)CC1	0.75
CCC1CCCCN1C(=O)Cn1c(=O)n(-c2cccc(C)c2)c(=O)c2ccccc21 (configuration not stated)	-0.11

Some of these compounds in order of the Measles inh value, ascending:
SMILES	Measles inh
CCOC(=O)c1c(NC(=O)C2c3ccccc3Oc3ccccc32)sc(C(N)=O)c1C	-0.69
CCCOc1ccc(-c2nc3ccccc3c(C(=O)O)c2C)cc1	-0.4
N#Cc1c(N=Cc2cccc3ccccc23)sc2c1CCCC2	0.67

Back to the main list with the five entries that preceded the break.
SMILES	Measles inh
O=c1c(-c2nc3ccccc3s2)coc2cc(OCc3ccc([N+](=O)[O-])cc3)ccc12	-0.12
O=C(O)c1cc(N2C(=O)c3ccccc3C2=O)cc(N2C(=O)c3ccccc3C2=O)c1	-0.31
COc1ccc(C2C(C(=O)OC3CCCCCC3)=C(C)NC3=C2C(=O)CC(C)(C)C3)cc1OC (configuration not stated)	-0.55
Oc1ccc(Br)cc1CN1CCN(Cc2ccco2)CC1	0.75
CCC1CCCCN1C(=O)Cn1c(=O)n(-c2cccc(C)c2)c(=O)c2ccccc21 (configuration not stated)	-0.11
OC(CNC12CC3CC(CC(C3)C1)C2)Cn1c2ccccc2c2ccccc21 (configuration not stated)	-0.56
CCN(CC)CC(=O)N(C)c1c(N)n(C)c(=O)[nH]c1=O	1.16
Brc1ccc(CN2C3=NCCN3c3ccccc32)cc1	-0.82
CCOC(=O)c1nnn(-c2ccc([N+](=O)[O-])cc2)c1C	0.11
Cc1ccc(OC(=O)c2ccc(C)c(S(=O)(=O)N3CCOCC3)c2)c(-n2nc3ccccc3n2)c1	0.02
CCOc1ccc(C(=O)Cn2c(=O)n(C3CCCC3)c(=O)c3cc(OC)c(OC)cc32)cc1Cl	0.14
COc1ccc(C2C(C(=O)OCCOc3ccccc3)=C(C)NC3=C2C(=O)CC(C)(C)C3)cc1Br (configuration not stated)	0.57
CC1=C(C(=O)Nc2cccc(C(F)(F)F)c2)C(c2ccsc2)C2=C(CC(c3ccccc3)CC2=O)N1 (configuration not stated)	-0.87
COc1cc(C2C(C(=O)N3CCOCC3)=C(C)NC3=C2C(=O)CC(C)(C)C3)ccc1OCc1ccccc1 (configuration not stated)	-0.25
CCOC(=O)CCc1c(C)n[nH]c1C	-0.19
CCc1c(C)sc(NC(=O)c2cccc(F)c2)c1C(=O)OC	-0.06
O=C(Nc1cccnc1)c1cccc(S(=O)(=O)N2CCOCC2)c1	-0.66
O=C(c1cccc(F)c1)N1CCN(c2ccc([N+](=O)[O-])c(NCc3ccccc3)c2)CC1	-0.08
O=C(CCSc1nc2ccccc2s1)Nc1ccc(Br)cc1	1.53
O=c1c2ccccc2c2ccccc2c(=O)n1-c1cccc(F)c1	0.79
COc1ccc(OC)c(NC(=O)CCN2C(=O)C3C4C=CC(C4)C3C2=O)c1 (configuration not stated)	0.94
O=c1c(-c2ccccc2)coc2cc(OCc3ccccc3Cl)ccc12	-0.63
CCn1cc(C(=O)NC2CCCC2)c(=O)c2cc(S(=O)(=O)N3CCCC3)ccc21	1.7
O=C(CNS(=O)(=O)c1ccc(Br)s1)N1CCN(c2cccc(C(F)(F)F)c2)CC1	-0.18
O=[N+]([O-])c1ccc(N2C(=S)N3CCCN3C2c2ccc(Br)cc2)cc1 (configuration not stated)	0.71
CCCCCCc1c(C)c2ccc(O)c(C)c2oc1=O	-2.44
COc1ccc(Cn2c(NCCO)nc3c2c(=O)n(C)c(=O)n3C)cc1	-0.5
Cc1ccc(-c2ccc(C(=O)C(F)(F)F)[nH]2)cc1	0.23
COc1ccc(C(C(=O)NC2CCCC2)N(C)c2ccccc2)cc1 (configuration not stated)	-0.95
O=C(c1ccc([N+](=O)[O-])cc1)N1N=C2CCCCCC2C1(O)C(F)(F)F (configuration not stated)	-0.29
Following part.
SMILES	Measles inh
Cc1ccc2nc(-c3ccc(C)o3)c(Nc3ccc(F)cc3)n2c1	-1.06
COc1ccccc1NC(=O)c1c(NC(=O)C(C)C)sc2c1CCCC2	0.15
Cc1ccc(-c2nn(CC(=O)NCc3ccccn3)c(=O)c3ccccc23)cc1S(=O)(=O)N1CCCCC1	-1.25
COC(=O)C1=C(C(=O)OC)SC(=C2C(=S)C(C)(C)N(C(=O)c3ccccc3)c3ccc(C)cc32)S1	-0.56
CCOc1ccccc1C(=O)Nc1ccc(C)cn1	-0.27
Cn1c(=O)c2c(ncn2Cc2ccc(C(C)(C)C)cc2)n(C)c1=O	-1.14
Cc1ccccc1-n1nc2c(c1NC(=O)c1cccs1)CS(=O)(=O)C2	-1.68
COc1cccc(C(=O)Nc2nc3ccc4sc(C)nc4c3s2)c1	-0.79
CCOC(=O)c1cc(-c2ccccc2)n(-c2ccccc2Cl)n1	-1.02
CCCCOC(=O)c1ccc(NC(=O)C2c3ccccc3Oc3ccccc32)cc1	1.42
COc1ccccc1Oc1ccc2c(c1)C(=O)N(c1cccc(C(=O)O)c1)C2=O	0.61
CCN(CC)CCNC(=O)C1c2ccccc2C(=O)N(C)C1c1cccs1 (configuration not stated)	-0.67
COc1cc2c(cc1OC)-c1nnc(-c3cccs3)n1C1(CCCC1)C2	0.01
COc1ccc(-c2cc(C(=O)NC(C)c3ccccc3)no2)cc1OC (configuration not stated)	-1.1
CCN(C)c1ccc(C=Nc2c(C)n(C)n(-c3ccccc3)c2=O)cc1	0.51
Cc1ccc(OCCn2c(SCC(N)=O)nc3ccccc32)c(C(C)C)c1	-0.38
CC(=O)Nc1cc(C(=O)NC2CCCCCC2)ccc1Sc1ccc(C)cc1	0.11
CC(=O)N/C(N)=N/c1nc(=O)c2ccccc2s1	-0.24
COCC(C)NC(=O)c1cc(-c2cc(OC)ccc2OC)on1 (configuration not stated)	-0.14
CCOC(=O)C(C)(C)NS(=O)(=O)c1cccc([N+](=O)[O-])c1	-0.11

This is a subset; the hit share may differ from the screen's.
